VACV mCherry inh: qHTS for Stage-Specific Inhibitors of Vaccinia Orthopoxvirus: mCherry Reporter Primary qHTS. Potency, µM (doses to about 36.5 µM), inactives show at the highest dose activity change, negative = inhibition, usual class: inhibitors. AID 720579, 2013. actives 0.63% (n = 310,000). Vaccinia virus mCherry reporter infection, fluorescence; about a quarter of the inactives have no number; active = well fitted inhibition curve with a large enough effect; inconclusive = small, poorly fitted or top-dose-only effect; inactive = no such curve, though single readings can be large or run the other way; tested in A549 cells; further: nearly all actives have a fitted effect of over 35% in size; inactives centre near -10
Vaccinia Venus: qHTS for Stage-Specific Inhibitors of Vaccinia Orthopoxvirus: Venus Reporter Primary qHTS; Vaccinia virus Venus reporter expression, fluorescence; Potency, µM (highest dose often 36.5 µM), for the others: at the highest dose activity change, negative = inhibition, usual class: inhibitors; actives 0.46% (n = 330,000); active means well fitted inhibition curve with a large enough effect; inconclusive means small, poorly fitted or top-dose-only effect; inactive means no such curve, though single readings can be large or run the other way; tested in A549 cells; further: nearly all actives have a fitted effect of over 30% in size; inactives centre near -10
Active calls of the source: *; i = inactive; ? = inconclusive; . = not tested or not shown; & = joins results of further samples; [ ] = dose if it differs, or a comment. On the % scale 0 is the no-effect control and ±100 the full control effect; potency means the concentration at half of the fitted maximal effect.

SMILES | VACV mCherry inh | Vaccinia Venus
CC(=O)c1ccc(S(=O)(=O)NCc2ccc(C(=O)NCC(c3ccccc3)N(C)C)cc2)cc1 (configuration not stated) | -5% | 1%
O=C1C[C@@H](c2ccc(O)cc2)Oc2cc(O)cc(O)c21 | i | -3%
Cc1ccc(NC(=O)Cn2c(=O)n(Cc3nc(-c4ccccc4)no3)c(=O)c3cc4c(cc32)OCO4)cc1F | -7% | 2%
Cc1ccccc1-n1c(SCC(=O)c2c(N)n(C)c(=O)n(C)c2=O)nc2sc3c(c2c1=O)CCCC3 | -1% | -16%
N/C(=N\[N+](=O)[O-])N1CCN(C(=O)Oc2ccccc2)CC1 | -10% | -10%
CN(CC(=O)Nc1sc2c(c1C#N)CCCCC2)Cc1nc2ccccc2c(=O)[nH]1 | -19% | -14%
Cc1cccc(C2c3[nH]c4ccccc4c3CCN2Cc2ccc(C)s2)n1 (configuration not stated) | ? | -1%
CCN(CC(=O)Nc1cccc(OC)c1)C(=O)c1ccncc1 | -5% | -15%
CC(=O)Nc1ccc(NC(=O)C(C)OC(=O)C2CCCC2)cc1 (configuration not stated) | -15% | -16%
COc1cc(OC)c(OC)cc1/C=C/c1nc2cc3ccccc3cc2c(=O)n1-c1ccc(F)c(Cl)c1 | -23% | -26%
O=C(CN1C(=O)/C(=C\c2ccc(F)cc2)Oc2ccccc21)NCc1ccco1 | -2% | -6%
Cc1cc(C)nc(SC2CC(=O)N(c3ccc(Br)cc3)C2=O)n1 (configuration not stated) | -20% | -10%
Cc1ccc(C)c(N2CCN(C(=O)c3ccc4c(Cl)c5c(nc4c3)CCCC5)CC2)c1 | -21% | -12%
COc1cc(NC(=O)COC(=O)c2ccccc2F)cc(OC)c1 | -8% | -6%
CC1CCN(S(=O)(=O)c2ccc(S(=O)(=O)NCc3cccnc3)cc2)CC1 | -1% | -5%
Cc1ccc(OCC(=O)N2CCN(C(=O)Cc3ccccc3)CC2)cc1 | i | -8%
Cc1cccc(OCCc2c(C)[nH]c(=S)[nH]c2=O)c1 | -30% | -25%
Cc1ccc(C2=[N+]([O-])C3(CCCCC/C3=N\NC(N)=O)N(O)C2(C)C)o1 (configuration not stated) | -20% | -7%
CCCc1cc(=O)[nH]c(SCC(=O)Nc2nc(-c3ccccc3)cs2)n1 | -4% | -3%
COP(=O)(OC)c1nc(-c2cccc3ccccc23)oc1NCc1ccccc1 | -13% | -24%
CN(Cc1ccccc1Cl)C(=O)C1CCC(=O)N(CCc2cccc(F)c2)C1 (configuration not stated) | -11% | -20%
COc1ccc(S(=O)(=O)Nc2cc(C)on2)cc1 | 25% | -2%
C=CCN1C(=O)NC(=O)/C(=C/c2cccn2C)C1=O | . | -19%
COc1ccccc1NC(=O)c1ccc(NC(=O)C2COc3ccccc3O2)cc1 (configuration not stated) | -11% | -2%
Oc1c(C=Nc2ccccc2Cl)[nH]c2ccccc12 | ? | 5%
CSc1nc2ccc(NC(=O)CSc3nnc(N)s3)cc2s1 | i | -13%
Cc1cc(C)nc(NS(=O)(=O)c2ccc(NS(=O)(=O)c3ccc(C#N)cc3)cc2)n1 | -14% | -4%
N#Cc1c(-c2ccccc2)nc(SCc2cccc(C(F)(F)F)c2)[nH]c1=O | -3% | -22%
O=C(O)c1cccc(N/N=C/c2cccs2)c1 | -5% | -6%
COc1c(Cl)ccc(Cl)c1C(=O)OCC(=O)O | -10% | 2%
CN1CCN(Cc2cn(C)nc2-c2ccccc2F)CC1c1ccccc1 (configuration not stated) | -9% | -9%
O=C(O)CCn1cc(C=C2C(=O)NC(=O)NC2=O)c(-c2cc3ccccc3oc2=O)n1 | 8% | -6%
Cc1ccc(C2(C)NC(=O)N(Cc3c(C)noc3C)C2=O)cc1 (configuration not stated) | -18% | -13%
COCCNC(=O)C1(C)CCCN(C(=O)c2cc(F)ccc2C)C1 (configuration not stated) | -9% | -7%
O=C(NNC(=S)Nc1ccccc1)c1cc(Br)ccc1Cl | -17% | -9%
CCOc1ccccc1C(=O)Nc1ccccc1-c1ccccc1 | -10% | -27%
Cc1ccc(SCC(=O)Nc2ccccc2C(=O)O)cc1 | -12% | -8%
CCOC(=O)c1oc2ccc(Br)cc2c1NC(=O)CN1CCN(C)CC1 | . | -6%
O=C(CCn1c(=O)sc2ccccc21)NCc1ccc2c(c1)OCO2 | -14% | 0%
COc1ccc(NC(=O)C2CCCN(c3cc(C)nc4ncnn34)C2)cc1 (configuration not stated) | -3% | -8%
CC1=C(C(N)=O)C(c2cccnc2)n2nc(-c3cccc(Cl)c3)nc2N1 (configuration not stated) | -12% | 3%
COc1ccccc1C(=O)N(Cc1ccco1)Cc1ccccc1F | -6% | -9%
O=C(N/N=C/c1c[nH]c2ccccc12)c1sc2ccccc2c1Cl | i | -7%
Cc1csc(N/N=C/c2ccc(O)c([N+](=O)[O-])c2)n1 | i | -5%
CCOC(=O)c1cccc(NC(=O)c2cc(C)nn2-c2ccccc2)c1 | i | -11%
COc1ccccc1N1CCN(C(=O)c2cnc(N3CCOCC3)c3ccccc23)CC1 | -30% | -29%
CS/C(=N\S(=O)(=O)c1cccs1)Nc1cccc(Cl)c1C | -23% | -14%
COc1ccc(S(=O)(=O)N2CCN(C(=O)Cc3ccsc3)CC2)cc1 | -15% | -3%
CCOc1ccc(S(=O)(=O)N2CCCC(C(=O)NCc3ccncc3)C2)cc1 (configuration not stated) | -3% | -19%
CSc1nc(C)nc(C2CC2)c1C#N | -10% | -10%

Additional structures.
SMILES | VACV mCherry inh | Vaccinia Venus
N#CCC(=O)N/N=C/c1ccc(SCC(=O)Nc2ccccc2)o1 | ? | 5%
COc1ccc(S(=O)(=O)N2CCC3(CC2)OCCN3S(=O)(=O)c2ccc(OC)cc2)cc1 | i | -15%
O=C(NCCCN1CCOCC1)c1ccc(CS(=O)(=O)Cc2ccc(Cl)cc2)o1 | -14% | -6%
O=C(/C=C/c1ccco1)NCc1ccco1 | -15% | -9%
Cc1cc(C)cc(NC(=S)Nc2ccc(Cl)c(Cl)c2)c1 | -20% | -8%
CC(=O)NCc1ccc(S(=O)(=O)N2CCCN(C)CC2)cc1 | i | -1%
CCCS(=O)(=O)NC(=O)C1(C)CCCN(C(=O)c2ccc3c(c2)OCO3)C1 (configuration not stated) | 2% | -1%
Cc1ccc(NC(=O)C2CCN(C(=O)NC3CCCCC3)CC2)cc1 | -14% | -5%
O=C(NCc1ccccc1)c1ccc(NC(=O)C2CC2)cc1 | 14% | -13%
Oc1ccccc1C1C=C(c2ccc3c(c2)OCO3)NC(c2cccc(Cl)c2)N1 (configuration not stated) | 28% | -6%
CCN(CC)CCCNC(=O)c1cc(-c2ccccc2)c(N2CCCCC2)s1 | -19% | -17%
CC1CCC(C(C)C)C(OC(=O)COC(=O)c2cccn2C)C1 (configuration not stated) | i | -12%
CCn1c(CNC(=O)c2cccs2)n[nH]c1=S | i | -5%
O=C(/C=C\c1ccc2c(c1)OCO2)NC1CC(=O)N(c2cccc(F)c2)C1 (configuration not stated) | -10% | -5%
Cc1cccc(C(=O)NCC(=O)N(C)CC(=O)Nc2ccc(N3CCOCC3)cc2)c1 | -13% | -12%
Cc1nc(C2CC(=O)OC23CCCCC3)cs1 (configuration not stated) | 0% | 0%
CCOC(=O)N1CCN(C(=O)COc2ccc(S(=O)(=O)NC(C)C)cc2)CC1 | -8% | -16%
O=C(C[C@H]1C=C[C@H](NC(=O)c2ccccn2)[C@@H](CO)O1)NCc1cc(F)cc(F)c1 | -5% | -15%
CCc1ccccc1Nc1nn2c(=O)c3ccc(C(=O)NC4CCC(C)CC4)cc3nc2s1 (configuration not stated) | 0% | -3%
CCC(C)N(C)C1CCN(C(=S)Nc2ccc(OC)cc2)CC1 (configuration not stated) | -2% | -4%
FC(F)(F)c1cc(-c2ccc(Cl)cc2)nc2ncnn12 | -22% | -8%
Cc1cccnc1C(NC(=O)C1CCN(Cc2ccc(Oc3ccccc3)cc2)CC1)c1ccccc1 (configuration not stated) | -7% | -17%
O=C(CCN1CCCCO1)NC1CCCc2c1cnn2-c1ccc(F)cc1F (configuration not stated) | -3% | -13%
C=CCOC(=O)COc1ccc2c3c(c(=O)oc2c1)CCCC3 | i | -4%
COc1cccc(CNS(=O)(=O)c2ccc3c(c2)CC(C)N3C(=O)C2CCC2)c1 (configuration not stated) | -22% | -16%&-20%
C1=C[C@H]2CCCN3CC[C@@H]([C@@H]2[C@]32CO2)[C@H]1CCOCc1ccccc1 | i | -6%
CCOC(=O)CC(=O)CSc1nc(N)c(C#N)c(-c2ccc(Cl)cc2)c1C#N | -15% | 3%
O=[N+]([O-])c1ccc(Oc2cnc3ccccc3n2)cc1 | i | 9%
COc1ccccc1CSc1ncc(-c2ccc([N+](=O)[O-])cc2)[nH]1 | ? | -17%
COc1ccc(CNC(=O)CSc2n[nH]c(-c3ccc(F)cc3)n2)cc1 | -14% | -12%
O=C(COC(=O)Cc1ccc(Cl)cc1)Nc1ccc2[nH]c(=O)[nH]c2c1 | -1% | -8%
COc1ccc(CC(=O)c2ccccc2C(=O)O)cc1 | i | -6%
O=C(NCCSc1c(-c2ccccc2)[nH]c2ccccc12)c1ccc(S(=O)(=O)N2CCOCC2)cc1 | ? | ?
CCn1c(O)c(C=Nc2ccccc2)sc1=O | i | -11%
O=C(CSc1ccccc1[N+](=O)[O-])NC1CCS(=O)(=O)C1 (configuration not stated) | -8% | -18%
CC1(C)C(C=C(Cl)Cl)C1C(=O)N/N=C/c1ccccc1F (configuration not stated) | -5% | -11%
COc1cc(C(=O)OCC(=O)NCCCc2ccccc2)ccc1OCC(C)C | -14% | 2%
CCc1ccc(C2C(C#N)=C(N)N(N3CCOCC3)C3=C2C(=O)CC(C)(C)C3)s1 (configuration not stated) | -14% | -21%
Cn1cc(Cl)c(C(=O)N2CCN(c3ncccn3)CC2)n1 | i | -12%
Nc1nc(N)c(Br)c(Nc2ccc(Cl)c(Cl)c2)n1 | ? | -27%
COc1ccc(CNC(=O)COC(=O)c2c(NC(C)=O)sc(C)c2C)cc1OC | -6% | -15%
COc1cc(C2CC(=O)Nc3c2c(C)nn3-c2nc(C)cc(C)n2)cc(OC)c1O (configuration not stated) | 2% | -14%
Cc1ccc(NC(=O)CSc2ccc(-c3ccccn3)nn2)cc1 | ? | ?
C=CCN1C(c2ccccc2)=CS/C1=C(\C#N)c1nnc2n1CCCCC2 | -17% | -11%
CC1CCc2c(sc(NC(=O)c3cccn3C)c2C(N)=O)C1 (configuration not stated) | -20% | -20%
COc1cc2c(cc1NC(=O)C(F)(F)F)-c1ccc(NC(=O)C(F)(F)F)cc1C2 | i | -1%
CCOc1ccc(NC(=O)Cn2cc(S(=O)(=O)c3ccc(C)cc3)c(=O)c3cc(F)ccc32)cc1 | -4% | -2%
CCCC[n+]1ccn(-c2nc3ccccc3nc2[N-]S(=O)(=O)c2ccc(C)cc2)c1 | i | -14%
CCOC(=O)/C(C#N)=C/c1ccc(OC(=O)c2ccco2)c(OCC)c1 | 1% | -4%
CC(C)C(NC(=O)OCc1ccccc1)C(=O)OCC(=O)N1C(C)CCCC1C (configuration not stated) | . | -18%
COc1cccc(-c2cc(=O)c3ccccc3o2)c1N | -7%[60.7 µM] | -13%[60.7 µM]
Cc1ccc([N+](=O)[O-])cc1N=C(c1ccc([N+](=O)[O-])cc1)N1CCOCC1 | -11% | -7%

Source: PubChem (National Center for Advancing Translational Sciences (NCATS))
